Bioassay records as filed in PubChem.
VDR inh – vitamin D3 receptor (human) inhibition; P11473; VDR-SRC2-3 peptide fluorescence polarization, 2 h; Potency, µM, inactives show max response, negative = inhibition, most hits filed as inhibitors; actives 0.93% (n = 400,000); active = well fitted inhibition curve with a large enough effect; inconclusive = small, poorly fitted or top-dose-only effect, or another doubt; inactive = no such curve, though single readings can be large or run the other way; note: series mostly up to about 120 µM
Target sequence (P11473 whole entry, looked up): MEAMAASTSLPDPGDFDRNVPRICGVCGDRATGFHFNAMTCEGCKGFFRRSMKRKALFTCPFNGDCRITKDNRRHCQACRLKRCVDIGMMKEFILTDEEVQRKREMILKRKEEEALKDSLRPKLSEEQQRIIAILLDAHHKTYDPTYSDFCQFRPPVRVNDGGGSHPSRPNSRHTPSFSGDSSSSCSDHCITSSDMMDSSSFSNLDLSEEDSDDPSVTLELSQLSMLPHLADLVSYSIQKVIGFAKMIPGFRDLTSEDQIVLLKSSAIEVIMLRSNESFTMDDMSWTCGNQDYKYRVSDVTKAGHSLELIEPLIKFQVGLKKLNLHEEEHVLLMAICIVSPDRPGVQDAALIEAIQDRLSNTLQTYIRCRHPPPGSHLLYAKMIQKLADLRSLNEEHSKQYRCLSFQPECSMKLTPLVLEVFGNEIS
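Compounds are added to VDR with labelled SRC2-3 coactivator peptide and held 2 h at room temperature. Inhibition of the VDR–peptide interaction is then read as a change in fluorescence polarization.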
* hit, by the source's call; ? = inconclusive; & = joins results of further samples; [ ] = remark or other dose. % is set by controls: 0 for no effect and ±100 for the full control effect; potency is the fitted concentration of half-maximal effect. Not all compounds are listed (hit frequency here may not be typical).

SMILES	VDR inh
CCCCC1=CC2=CC(=O)C(C)(OC(=O)C3CCCC3)C(=O)C2=CO1 (centres undefined)	-18%&-12%
CS(=O)(=O)N1CCN(c2ccc(NC(=O)CSc3ccc(Cl)cc3)cc2)CC1	-5%
CCOc1ccc(NC(=O)CN(c2ccc(OCC)cc2)S(=O)(=O)c2c(C)[nH]c(=O)[nH]c2=O)cc1	-11%
CCCN(CCC)CCCNC(=O)c1cc2c(-c3ccc(OC)c(OC)c3)nn(C)c2s1	-3%&1%
C/C=C/C(=O)N1CC2(CC(c3cccc(NC(=O)CC)c3)=NO2)C[C@H]1C(N)=O (some centres undefined)	-8%
NC(=O)c1cc(C(N)=O)nc(Cl)n1	-4%
COCCNc1sc(S(=O)(=O)c2ccc(C)cc2)nc1S(=O)(=O)c1ccc(C)cc1	9%
Cc1ccc(-c2nc3c4c(-c5ccccc5)c(-c5ccccc5)oc4ncn3n2)cc1	-2%
O=c1c2cc3c(cc2n(Cc2ccc(Cl)cc2)c(=O)n1Cc1nc(-c2ccccc2)no1)OCO3	4%
CC1=C(c2ccc(C)c(C)c2)S(=O)(=O)N=C1N1CCC(C(=O)NCc2ccccc2C)CC1	5%
Cc1cc(C(=O)COC(=O)Cc2ccc(Br)cc2)c(C)n1C	3%
CC(Oc1ccc(F)cc1)C(=O)Nc1cc(S(=O)(=O)N2CCCCC2)ccc1N1CCOCC1 (centres undefined)	-8%
Cc1ccc(-n2nnnc2C2CCN(S(=O)(=O)c3ccc(OC(F)(F)F)cc3)CC2)cc1	0%
COc1ccc(/C=N/OCC(=O)Nc2ccc3c(c2)OCO3)c(OC)c1	-11%
CCN(CC1COc2ccccc2O1)C(=O)CN1C(=O)NC(C)(c2ccccc2)C1=O (centres undefined)	?
CC1CCC/C(=C\Nc2ccc(O)cc2)C1=O (centres undefined)	-30%
COCCNC(=O)C(c1ccccc1)N(CCOC)C(=O)Cn1nnc2ccccc21 (centres undefined)	6%
C=CCc1c(C)nc2c(OC)cccc2c1Cl	-11%
COCCn1c(SCc2ccc(OC)c(F)c2)nc2ccccc2c1=O	1%
CCC1(C)NC(=O)N(CC(=O)c2cc(C)n(C3CC3)c2C)C1=O (centres undefined)	0%
CCc1ccc2nc(N(CCCN(C)C)C(=O)c3ccc(S(=O)(=O)N4CCCc5ccccc54)cc3)sc2c1	-23%
CCOC(=O)C1=C(c2ccccc2)N(C)C(=O)NC1c1ccc(OC(F)F)c(OC)c1 (centres undefined)	-2%
Cc1ccc(S(=O)(=O)N2CCN(C(=O)CC3CCCC3)CC2)cc1	10%
Cc1ccc(Cc2cnc(NC(=O)c3cccs3)s2)cc1	3%
COc1ccc(N2N=NN(C(C)C)C2=C(Cl)c2nnnn2-c2ccc(OC)cc2)cc1	-12%
COc1ccc(S(=O)(=O)N2CCc3ccccc32)cc1C(=O)O	-17%
COc1cc(C)nc(N(C)C(C)=O)n1	5%
CC(C)(C)OC(=O)N1CCN(Cc2ccc(F)c(B(O)O)c2)CC1	-11%
O=C(Cc1ccccc1)N(c1ccccc1)c1ccccc1	-14%
O=C1NC(=Nc2cccc([N+](=O)[O-])c2)SC1(CO)CO	-13%
Cc1ccc(C(=O)NC2CCN(CC(=O)NC3CCC(C)CC3)CC2)cc1 (centres undefined)	3%
COc1cccc(-c2nc(CS(=O)(=O)CC(=O)NCCC(C)C)c(C)o2)c1	-18%
COc1cc(C(=O)Oc2ccccc2/C=N/NC(=O)c2ccc(Cl)cc2)cc(OC)c1OC	-8%
CC(NC(=O)c1ccco1)c1nc(-c2ccccc2)no1 (centres undefined)	-2%&-6%
CC1(C)CC(=O)CC(C)(C)N1OC(=O)c1ccccn1	4%
Cc1cc(C)c(C#N)c(SCc2nnc(-c3ccccc3[N+](=O)[O-])o2)n1	0%
CN(C)c1ncc2nc(-c3ccc(Cl)cc3)c(=O)n(Cc3ccc(F)cc3)c2n1	6%
NC(=O)c1oc2ccccc2c1NC(=O)c1ccco1	-9%
CCN1CCN(C(=O)c2ccc(OCC(=O)Nc3ccc(F)cc3)c(OC)c2)CC1	1%
COCCCNC(=O)c1c(N)n(/N=C/c2cccnc2)c2nc3ccccc3nc12	0%
O=C(OC(C(=O)NCc1ccc2c(c1)OCO2)c1ccncc1)c1ccc(Cl)nc1 (centres undefined)	-22%
CCCCNC(=O)CSc1nnc(Cc2ccc(Cl)c(Cl)c2)c(=O)[nH]1	7%
CCOc1cc(/C=C2/C(=N)N3OC(C)=CC3=NC2=O)ccc1OCCOc1ccccc1	-18%
CCC1C/C(=C/c2cccs2)C(=O)/C(=C/c2cccs2)C1 (centres undefined)	-21%
CC(C)(C)C(=O)NC(=S)NNC(=O)c1ccc(Cl)cc1Cl	-1%
Cc1cc(C(=O)NNC(=S)NCc2ccccc2)cs1	8%
O=C(CSc1n[nH]c(-c2ccccn2)n1)Nc1ccccc1F	4%
CC(=O)c1ccc(NC(=O)c2nc3ccccc3nc2N2CCCCC2)cc1	-12%
CC1CC[C@@]2(OC1)OC1CC3C4CC[C@@H]5CC(O)CC[C@@]5(C)C4CC[C@]3(C)C1C2C (some centres undefined)	3%
Cc1ccc(NC(=O)CCN2CCCCC2)cc1	-6%

(cont.)
SMILES	VDR inh
CCC(=O)Nc1cccc(-c2nnc(SCC(=O)c3ccccc3)n2C)c1	-12%
COC(=O)c1cnc(N)s1	-1%
COc1ccccc1NS(=O)(=O)c1cc2c3c(c1)CCN3C(=O)CC2	-3%
CCc1ccc(OCC(=O)Nc2ccc(N3CCN(C(=O)c4ccccc4)CC3)cc2)cc1	13%
COc1ccc(C(=O)Nn2c(C3CCC3)nc3ccccc3c2=O)c(OC)c1	11%
COCC(C)n1c(SCC(=O)NC2CCCCC2C)nc2ccccc2c1=O (centres undefined)	5%
O=C(CCCc1ccccc1)N1CCc2ccccc21	18%
NC(=O)COC(=O)c1cccc(NS(=O)(=O)/C=C/c2ccccc2)c1	-19%
CCCc1nc(SCC(=O)NCc2ccco2)c2c(=O)n(C)c(=O)n(C)c2n1	-23%
COc1ccc(CCNc2c(N)n(Cc3ccccc3)c(=O)[nH]c2=O)cc1OC	-7%
CN(C)S(=O)(=O)N(CC(=O)N1CCN(c2ccccc2)CC1)c1ccccc1	9%
CC(C)Cc1ccc(S(=O)(=O)Nc2ccccn2)cc1	5%
CCOC(=O)C(=CNNc1ccsc1C(=O)OC)C(=O)OCC	2%
CC1CCC(NC(=O)CN2C(=O)C3CC=CCC3C2=O)CC1 (centres undefined)	7%
Cc1[nH]c(=O)[nH]c(=O)c1S(=O)(=O)Nc1ccc(Br)cc1F	6%
CCN(CC)[C@@H](C)CN1c2ccccc2Sc2ccccc21	-8%
COc1ccc(C(=O)OCC(=O)Nc2ccc3[nH]c(=O)[nH]c3c2)c(OC)c1OC	-13%
CC(NC(=O)CN1C(=O)NC(c2ccccc2)(c2ccccc2)C1=O)c1cccs1 (centres undefined)	10%
C=CCn1ccc(=NC=C(C#N)C#N)c2ccccc21	0%
COC(=O)[C@H](CC(C)C)NC(=O)CCc1nnc(COc2ccccc2)o1	-3%
CCOCCCNS(=O)(=O)c1ccc(OC)c(Cl)c1Cl	-17%
CCOC(=O)c1cccc(NC(=O)CCc2c(C)nn(-c3ccc(N4CCOCC4)nn3)c2C)c1	9%
NC(=O)Cn1nnc(-c2ccc(NC(=O)c3ccc(F)cc3)cc2)n1	2%
COc1cc(C(c2c(C)[nH][nH]c2=O)c2c(C)[nH][nH]c2=O)cc(Cl)c1O	-25%
O=C(COC(=O)c1ccccc1Nc1ccccc1)c1ccccc1	16%
COc1ccc(/C=C(/C(=O)N2CCCCC2C(=O)O)c2ccc(OC)c(OC)c2)cc1 (centres undefined)	-12%
O=C1CCCC(O)=C1C(C#Cc1ccccc1)C1=C(O)CCCC1=O	?
CCC(C(=O)Nc1nc(C)c(C)s1)c1ccccc1 (centres undefined)	1%
O=C(C1CCCN1S(=O)(=O)c1cccc2cccnc12)N1CCc2ccccc21 (centres undefined)	-6%
CC(C)(C(=O)O)c1ccc([C@H](O)CCCN2CCC(C(O)(c3ccccc3)c3ccccc3)CC2)cc1	-30%

As a working copy, 5 of the compounds above:
SMILES	VDR inh
COc1cc(C(c2c(C)[nH][nH]c2=O)c2c(C)[nH][nH]c2=O)cc(Cl)c1O	-25%
O=C(COC(=O)c1ccccc1Nc1ccccc1)c1ccccc1	16%
COc1ccc(/C=C(/C(=O)N2CCCCC2C(=O)O)c2ccc(OC)c(OC)c2)cc1 (centres undefined)	-12%
O=C1CCCC(O)=C1C(C#Cc1ccccc1)C1=C(O)CCCC1=O	?
CCC(C(=O)Nc1nc(C)c(C)s1)c1ccccc1 (centres undefined)	1%

Other structures follow.
SMILES	VDR inh
Cn1cccc1C(=O)N1CCC[C@@]2(CCN(C(=O)Nc3cccc(C#N)c3)C2)C1	-1%
O=C(N/N=C/c1ccccc1)c1ccc2c(c1)OCO2	-13%
O=C(Cc1ccc(F)cc1)Nc1ccc(S(=O)(=O)N2CCCCC2)cc1	7%
C/C(=N\NC(=O)c1ccc(-c2ccccc2)cc1)c1cccc(N)c1	-7%
C=C(C)CSc1nc(-c2ccccc2)cc(-c2ccc(OC)cc2)c1C#N	-12%
Cc1cccc(OCCC(=O)NNC(=O)Cn2nc(C)cc2C)c1	1%
Cc1c(Cc2ccccc2)sc(NC(=O)c2ccco2)c1C(N)=O	-4%
O=C(O)CCC(=O)N1CCN(Cc2ccc3c(c2)OCO3)CC1	1%
O=C(/C=C/c1cccc([N+](=O)[O-])c1)OCC1CCCO1 (centres undefined)	2%
O=C(CC(c1ccccc1)c1cc(Br)ccc1O)NCc1ccco1 (centres undefined)	-11%

A draw from above in order of molar mass, high to low.
SMILES	VDR inh
CC1CC[C@@]2(OC1)OC1CC3C4CC[C@@H]5CC(O)CC[C@@]5(C)C4CC[C@]3(C)C1C2C (some centres undefined)	3%
O=C(CC(c1ccccc1)c1cc(Br)ccc1O)NCc1ccco1 (centres undefined)	-11%
COc1ccc(CCNc2c(N)n(Cc3ccccc3)c(=O)[nH]c2=O)cc1OC	-7%
Cc1[nH]c(=O)[nH]c(=O)c1S(=O)(=O)Nc1ccc(Br)cc1F	6%
O=C(O)CCC(=O)N1CCN(Cc2ccc3c(c2)OCO3)CC1	1%

(more compounds)
SMILES	VDR inh
CC(C#N)(Cc1ccccc1)Nc1ccccc1 (centres undefined)	-13%
Cc1cccc(NC(=S)N=Nc2c(O)n(CN3CCOCC3)c3ccccc23)c1C	-10%
O=C(CN1CCN(c2nc(-c3ccccc3)cs2)CC1)Nc1ccc2c(c1)OCO2	14%
Cn1c(=O)c(C(=O)NCc2ccccc2Cl)c(O)c2ccccc21	2%
CCOc1cc(S(=O)(=O)NCc2ccco2)c(OCC)cc1-n1cnnn1	-1%
O=Cc1cccn1-c1cccnc1	-8%
CC(C)(C)NC(=O)NC(=O)COC(=O)c1c(F)cccc1Cl	-12%
Cc1ccc(NC(=O)c2cc(S(=O)(=O)N3CCOCC3)c(Cl)cc2Cl)cc1	-11%
CC(C(=O)O)c1ccc(C(=O)c2ccccc2)s1 (centres undefined)	8%
CS(=O)(=O)N(CC(=O)N1CCN(c2ccccc2F)CC1)c1cccc(C(F)(F)F)c1	-15%
O=C(CN1C(=O)COc2ccccc21)NCCc1ccc(Cl)cc1	-3%
CCOC(=O)C1CCCN(Cc2cccc(Cl)c2)C1 (centres undefined)	6%
CN1CCN(C(=O)c2cccc(S(=O)(=O)N3CCCCC3)c2)CC1	8%
CCOC(=O)C1=C(C)N(CCCC(=O)O)C(=O)NC1c1ccccc1OS(=O)(=O)c1ccc(C)cc1 (centres undefined)	-15%
Cc1ccccc1NC(=O)c1ccccc1NC(=O)CCC(=O)O	0%
Cc1ccnc(OC(C(=O)O)C(OCc2ccccc2)(c2ccc(F)cc2)c2ccc(F)cc2)n1 (centres undefined)	?
CCCCOC(=O)c1nnc(-c2ccccc2)o1	13%
O=C1OCC2=C1C(c1ccc(F)cc1)Sc1ccccc1N2 (centres undefined)	3%
O=C(COc1cccnc1[N+](=O)[O-])NCc1ccc(F)cc1	-5%
Cc1ccc(C(O)c2nc3ccccc3n2C)cc1 (centres undefined)	-15%

Rewritten bar-delimited: entries from further up
Compound | VDR inh
CCCCOC(=O)c1nnc(-c2ccccc2)o1 | 13%
O=C1OCC2=C1C(c1ccc(F)cc1)Sc1ccccc1N2 (centres undefined) | 3%

More records follow.
SMILES	VDR inh
Cc1cc(C)nc(-n2nc(C)cc2NC(=O)c2cccc(S(=O)(=O)N3CCOCC3)c2)n1	42%[activator]
O=C(Cc1cn(Cc2cccc(Cl)c2)c2ccccc12)N1CCCC1	-5%
CCOC(=O)c1c(C)[nH]c(C(=O)Cn2c(=O)oc3ccccc32)c1C	0%
Cc1ccc(C(C(=O)NCc2ccc(F)cc2)N(C(=O)c2csnn2)C2CC2)cc1 (centres undefined)	-1%
CCNC(=S)NNC(=O)Nc1ccccc1	-6%
COc1ccc(OC)c([N+](=O)[O-])c1C(N)=O	-21%
Cc1ccc2c(c1)N(CCC(=O)NCCCOC(C)C)C(=O)C(C)O2 (centres undefined)	-4%
COC(=O)[C@@H](NC(=O)O[C@@H]1C(=O)c2cc(Br)ccc2O[C@H]1c1ccc2c(c1)OCO2)C(C)C	-12%
Cc1cc(C(=O)N/N=C/C=C/c2ccccc2)n[nH]1	15%
Cc1ccc(C)c2c1cc(C)c1nnc(SCC(=O)c3cccs3)n12	-5%
COc1ccc(-c2ccc(-c3nnc(Cc4ccc(OC)c(OC)c4)o3)cc2)cc1	12%
CS(=O)(=O)N1CCC(C(=O)Nc2cc(C(F)(F)F)ccc2Cl)CC1	11%
C#CCOC(=O)C[N+](C)(C)CC#Cc1ccccc1	14%
O=C(CSc1n[nH]c(-c2ccccc2Cl)n1)NCCCc1ccccc1	13%
COc1ccc(N2CCN(C(=O)CCC(=O)N3CCOc4ccc(Cl)cc43)CC2)cc1	2%
O=C(C1CCCO1)N1CCN(c2ccc(F)cc2)CC1 (centres undefined)	-8%
COc1ccc(CCNC(=O)c2nnc(CS(=O)(=O)c3ccccc3)o2)cc1OC	-1%
